Compound activity as filed in PubChem BioAssay.
UUG fidelity: modulators of yeast start codon fidelity, primary screen, whole organism, S. cerevisiae, single point, plate reader | S. cerevisiae UUG-firefly luciferase reporter, luminescence/redox ratio | activity score, % at 18.7 µM | 350,000 compounds, 0.13% hits | AID 602363, 2012;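 active means replicate mean at a twofold rise or more, about +100% in these data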;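 further: firefly luciferase made from a UUG start codon reports start codon fidelity; reporter light over untreated wells divided by growth signal over untreated wells; some hits fall short of that in this replicate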
Rce1 inh: yeast Rce1p protease inhibitors, primary screen, biochemical, fluorescence, cell-free homogeneous. CAAX prenyl protease 2 (Saccharomyces cerevisiae (strain ATCC 204508 / S288c)), Q03530. yeast membranes, quenched prenylated peptide cleavage fluorescence. calls only. 290,000 compounds, 0.27% hits;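 active means fall in fluorescence gain of 50% or more versus controls, with final raw signal at or below 3038400; inconclusive means same 50% fall but final raw signal above 3038400; inactive means fall in fluorescence gain under 50%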;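 further: plate controls were neutral control wells for no effect and wells lacking membranes for full effect; tested at 10 µM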
Target sequence (Q03530 whole entry, looked up): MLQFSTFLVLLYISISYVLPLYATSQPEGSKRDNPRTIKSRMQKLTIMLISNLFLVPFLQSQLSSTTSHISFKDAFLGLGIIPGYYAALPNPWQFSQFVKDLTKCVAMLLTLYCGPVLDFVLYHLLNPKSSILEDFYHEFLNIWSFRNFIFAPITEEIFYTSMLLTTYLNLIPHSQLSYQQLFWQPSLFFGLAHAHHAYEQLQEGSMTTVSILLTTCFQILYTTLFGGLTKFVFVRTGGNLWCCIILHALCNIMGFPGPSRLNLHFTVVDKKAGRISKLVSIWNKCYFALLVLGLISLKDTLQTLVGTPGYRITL
Env fusion inh: inhibitors of HIV-1 Env-driven cell-cell fusion, primary screen, HeLa-JRFL effector, CEM21 target cells, luciferase | 360,000 compounds, 1.1% hits | inhibition, % at 12.3 µM;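 active means mean replicate inhibition score of at least 50 and every replicate individually at or above 50; inconclusive means only one of the two criteria met; inactive means mean below 50 and not all replicates reaching 50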;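 further: 0% = plate neutral controls and 100% = maraviroc near 300 nM; one replicate is shown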
MT1-MMP act inh: blockers of MT1-MMP proenzyme processing, primary screen, HT1080 RFP-PRO-GFP cells, GFP/RFP fluorescence. 360,000 compounds, 0.061% hits. Matrix metalloproteinase-14 (Homo sapiens), P50281. GFP/RFP ratio fluorescence, overnight; percent of plate control window, DMSO zero. GFP/RFP ratio change, % at 20 µM;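 active means GFP/RFP ratio change of at least 30% with cell ATP level not reduced by more than half and red fluorescence within 50% of control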; further: strong numbers were not always called active
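Material: RFP-PRO-GFP reporter HT1080 cells. Dosing: single-point 20 µM compound, 1% DMSO. Controls: DMSO and RFP-L50D-GFP cell wells. Timing: cells overnight before dosing, compound overnight, 37 °C, 5% CO2. Measure: GFP/RFP fluorescence ratio.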
eIF4H inh: human eIF4H binding inhibitors, primary screen, translation initiation inhibitor project, biochemical, uHTS, fluorescence polarization | 290,000 compounds, 0.94% hits | AID 2012, 2009 | Eukaryotic translation initiation factor 4H (Homo sapiens), Q15056 | inhibition, % at 35 µM | eIF4H fluorescence polarization binding assay;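 active means 50% or more with normal probe brightness, or confirmed in later tests; inconclusive means above 50% with abnormal brightness, or retests that disagree; inactive means below 50% or failed in later tests; about a fifth of its hits are not listed in these tables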;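 further: calls also rest on retests at 20 µM and on dose response follow-up; 0% = protein and probe with vehicle and 100% = probe without protein; strong numbers were not always called active; many hits fall short of the cut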
PABP polyA inh: PABP poly(A) RNA binding inhibitors, primary screen, biochemical, fluorescence polarization, uHTS. 290,000 compounds, 1% hits. inhibition, % at 35 µM. AID 2014, 2009. Polyadenylate-binding protein 1 (Homo sapiens), P11940;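 active means 50% or more with normal probe brightness, or confirmed in later tests; inconclusive means above 50% with abnormal brightness, or retests that disagree; inactive means below 50% or failed in later tests; about a fifth of its hits are not listed in these tables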;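 further: calls also rest on retests at 20 µM and on dose response follow-up; controls were probe without protein and protein plus probe with vehicle; some compounds called inactive have numbers as strong as hits; many hits fall short of the cut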
Target sequence (P11940 whole entry, looked up): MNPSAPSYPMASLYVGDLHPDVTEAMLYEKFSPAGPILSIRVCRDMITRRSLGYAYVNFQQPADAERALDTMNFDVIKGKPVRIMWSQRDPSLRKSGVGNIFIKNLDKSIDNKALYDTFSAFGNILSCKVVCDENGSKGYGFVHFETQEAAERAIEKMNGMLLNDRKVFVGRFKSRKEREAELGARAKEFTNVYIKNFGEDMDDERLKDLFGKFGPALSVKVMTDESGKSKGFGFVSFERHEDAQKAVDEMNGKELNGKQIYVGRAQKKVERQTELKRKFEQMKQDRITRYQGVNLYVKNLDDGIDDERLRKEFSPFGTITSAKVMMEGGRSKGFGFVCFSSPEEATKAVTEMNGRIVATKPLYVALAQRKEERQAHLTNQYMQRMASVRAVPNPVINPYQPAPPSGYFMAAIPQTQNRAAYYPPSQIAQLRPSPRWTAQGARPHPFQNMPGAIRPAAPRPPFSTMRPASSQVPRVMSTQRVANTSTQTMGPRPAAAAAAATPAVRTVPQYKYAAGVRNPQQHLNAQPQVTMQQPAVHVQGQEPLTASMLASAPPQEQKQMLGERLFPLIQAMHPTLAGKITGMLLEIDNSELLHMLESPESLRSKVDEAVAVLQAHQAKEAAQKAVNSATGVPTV
CSC inhib: cancer stem cell viability inhibitors, primary screen, luminescence; cancer stem cell-like cells viability; inhibition, % at 7.5 µM; 300,000 compounds, 1.1% hits;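 active means mean at 75% or more and at least half the replicates too; inconclusive means mean and replicates disagree; tested in HMLE shEcad cells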;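 further: 0% = median of negative and 100% = median of positive control wells; the first replicate is given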
eIF4H inh retest: second read-out of eIF4H inh, no call of its own (marks repeat the call); inhibition, %; compound at 20 µM; confirmation average;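 mean of two retest wells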
PABP polyA inh retest: second read-out of PABP polyA inh, no call of its own (marks repeat the call); inhibition, %; compound at 20 µM; confirmation repeats;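 mean of two retest wells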
MT1-MMP act inh RFP: also measured in MT1-MMP act inh; calls as there; RFP signal change, %; measured here: RFP expression control read;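 0 = vehicle wells; hits needed this value within 50% of zero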
An asterisk follows results filed as active; i = inactive; ? = inconclusive; . = not tested or not shown; & = joins results of further samples; [ ] = dose if it differs, or a comment. These rows are one share of the data; the hit share may differ from the screen's.

SMILES	UUG fidelity	Rce1 inh	Env fusion inh	MT1-MMP act inh	MT1-MMP act inh RFP	eIF4H inh	PABP polyA inh	CSC inhib	others
Cc1noc(/C=C/c2ccccc2F)c1S(=O)(=O)N1CCC(C(=O)N2CCN(C)CC2)CC1	-2	i	-1	0	4	-15	6	49
FC(F)(F)c1ccccc1NC1=NCCC1	.	i	-5	-1	2	-2	15	-3
CC1=C/C(=N\OS(=O)(=O)c2ccccc2)C(C(C)C)=CC1=O	.	.	.	-11	-9	3	1	62
Cc1sc2nc(-c3ccccc3F)oc(=O)c2c1C	1	.	4	2	3	.	.	.
COC(=O)CSc1nnc(-c2ccc(S(=O)(=O)N3CCCC3)cc2)o1	-12	i	-4	-2	-2	0	11	6
CC(O)[C@H](NC(=O)C1CCN(C(=O)[C@H](Cc2ccccc2)NC(=O)OC(C)(C)C)CC1)C(=O)O (some centres not stated)	4	i	-1	2	5	6	8	3
Cc1cc(C(=O)CSc2nnc(N)s2)c(C)n1Cc1ccco1	.	i	3	3	6	36	6	4
CC(NC(=O)CN1C(=O)NC(Cc2ccccc2)(Cc2ccccc2)C1=O)C12CC3CC(CC(C3)C1)C2 (configuration not stated)	5	i	.	-25	-21	-15	1	14
O=C(/C=C/c1ccccc1)NC1CC2CCC1C2 (configuration not stated)	.	i	-2	0	3	-2	1	-16
FC(F)(F)c1cccc(Sc2nc(-c3ccccc3)nnc2C(F)(F)F)c1	-4	i	.	-8	-2	2	9	.
COc1ccc(S(=O)(=O)Nc2ccc3c(c2)C(=O)N([C@H](C)CO)C[C@H](C)[C@@H](CN(C)S(C)(=O)=O)O3)cc1	-4&-29	.	7[16.7 µM]	0	4	.	.	.
CCCc1cc(=O)[nH]c(SCC(=O)Nc2nonc2N)n1	.	i	-27	1	2	4	6	-3
O=c1c([N+](=O)[O-])c(O)c2ccccc2n1Cc1ccccc1	-11	i	-25	3	8	2	3	-4
O=C(O)CCS(=O)(=O)Cc1ccccc1F	-18	i	2	3	6	0	-6	-5
COc1cc(OC)cc(C(=O)N(CN2CCCC2=O)c2ccccc2OC)c1	-11	i	-193	0	2	0	-7	-5
O=C(CN1C(=O)NC2(CCCCC2)C1=O)Nc1ccc(F)cc1	.	i	-10	7	3	-4	24	-2
COCCSc1ccccc1C(=O)NCc1ccc(S(N)(=O)=O)cc1	-17	i	.	0	-3	7	4	-1
COc1cc(/C=C/c2nc3ccccc3c(=O)[nH]2)cc(Br)c1O	-16	.	-8	-70	2	-2	-6	-11
CN(C)c1ccc(NC(=O)/C=C/c2c(Cl)cccc2Cl)cc1	.	i	-24	3	-1	-8	3	.
CN1C(=O)CSc2ccc(NC(=O)N3CCc4ccccc43)cc21	-7	i	.	4	-6	-9	-4	-13
COc1cccc2sc(Nc3nnc(-c4ccccc4Cl)o3)nc12	-28	i	-140	6	-8	7	12	71
COc1ccc(C2CC(=O)C(C3NCCc4ccccc43)=C(O)C2n2cncn2)cc1 (configuration not stated)	.	i	1	-4	-1	-5	20	-10
COc1ccc(C(=O)NCc2nnc(SCC(=O)Nc3cc(Cl)ccc3OC)o2)cc1	20	i	4	-2	3	-15	7	8
Cc1c(NC(=O)c2ccccc2)cccc1[N+](=O)[O-]	-9	i	9	4	7	6	-2	-3
CC(C)c1ccc(NC(=S)NNC(=O)C2CC2)cc1	.	i	-5	2	-1	6	-1	1

Entries above containing fluorine (6):
SMILES	UUG fidelity	Rce1 inh	Env fusion inh	MT1-MMP act inh	MT1-MMP act inh RFP	eIF4H inh	PABP polyA inh	CSC inhib	others
Cc1noc(/C=C/c2ccccc2F)c1S(=O)(=O)N1CCC(C(=O)N2CCN(C)CC2)CC1	-2	i	-1	0	4	-15	6	49
FC(F)(F)c1ccccc1NC1=NCCC1	.	i	-5	-1	2	-2	15	-3
Cc1sc2nc(-c3ccccc3F)oc(=O)c2c1C	1	.	4	2	3	.	.	.
FC(F)(F)c1cccc(Sc2nc(-c3ccccc3)nnc2C(F)(F)F)c1	-4	i	.	-8	-2	2	9	.
O=C(O)CCS(=O)(=O)Cc1ccccc1F	-18	i	2	3	6	0	-6	-5
O=C(CN1C(=O)NC2(CCCCC2)C1=O)Nc1ccc(F)cc1	.	i	-10	7	3	-4	24	-2

Next results follow.
SMILES	UUG fidelity	Rce1 inh	Env fusion inh	MT1-MMP act inh	MT1-MMP act inh RFP	eIF4H inh	PABP polyA inh	CSC inhib	others
CCOC(=O)c1c(NC(C)=O)sc2c(O)c(Br)ccc12	-18	i	-89	-4	-1	-6	-3	4
CCCCn1c(=O)c(CCC(=O)OCC(=O)Nc2ccc(F)c(Cl)c2)nc2ccccc21	-16	i	-2	-3	6	-5	8	-22
Clc1ccc(C2[C@H]3CN(Cc4cccnc4)[C@H](c4ccccc4)C34CC2(c2ccccc2)C4)cn1 (some centres not stated)	-18	i	?	.	.	0	-20	16
Cc1ccc(Cl)cc1NC(=O)c1cnn2c1NC(c1ccco1)CC2C(F)(F)F (configuration not stated)	4	i	27	15	19	?	?	1
O=C(/C=C\c1ccco1)Oc1cccc2cccnc12	.	i	10	-4	2	92	-9	9	eIF4H inh retest=-9;PABP polyA inh retest=9
CCc1ccccc1NC1c2ccccc2C(=O)N1c1cc(C)ccn1 (configuration not stated)	-5	i	-3	4	8	-9	4	-3
Cc1ccsc1/C=N/Nc1nc2ccccc2[nH]1	-29	i	-116	14	0	22	-8	.
CCn1c(=N)c(C(=O)NCCCOC)cc2c(=O)n3cccc(C)c3nc21	-10	.	-16	-5	5	8	4	-14
Cc1ccc2c(CN3CCCc4ccccc43)cc(=O)oc2c1C	14	i	4	-65	10	34*	76*	5	eIF4H inh retest=91*;PABP polyA inh retest=54*
CC(=O)C1=C(O)C(=O)N(c2cccc(Br)c2)C1c1ccc(Br)cc1 (configuration not stated)	-24	i	10	3	-7	4	14	0
CN(c1cccc(Cl)c1)S(=O)(=O)c1cccc(C(=O)NN2CCOCC2)c1	-7	.	.	-2	4	.	.	-1
O=C(NCc1ccncc1)C(=O)NCC1OCCCN1S(=O)(=O)c1ccc(F)cc1 (configuration not stated)	-23	i	6	1	4	-5	-4	-9
CC(=O)Nc1ccc(OCC(O)Cn2ccnc2)cc1 (configuration not stated)	-24	.	-2	4	5	-2	-3	1
Cc1ccc(SCC(=O)N2CCN(c3ccc(F)cc3)CC2)cc1	-20	.	7	2	-1	.	.	.
O=C(COC(=O)c1ccc(S(=O)(=O)Nc2ccccc2)cc1)NCC1CCCO1 (configuration not stated)	.	i	1	2	4	-8	11	-11
Cc1cccc(N2C(=O)CCC2=O)n1	-13	i	9	4	6	-2	-12	.
Cc1cc(NC(=O)COc2ccccc2C#N)no1	-18	.	-30	0	3	.	.	.
CC(C)=CCSc1nnc(CCNC(=O)OC(C)(C)C)o1	-12	i	6	0	1	2	1	-8
COc1ccc(-c2csc(NC(C)c3nc4cc(Cl)c(N5CCCCC5)cc4n3CCCO)n2)cc1 (configuration not stated)	-22	i	-10	-5	-10	.	.	-26
Cc1cccc(-c2ncc(CN3CCCC(CO)(Cc4cccc(Cl)c4)C3)cn2)c1 (configuration not stated)	.	i	4	4	-2	-10	-1	16
O=c1[nH][nH]c(=O)n1-c1ccccc1	-6	i	-1	-3	-1	10	15	-8
CC(=O)Nc1cccc(NC(=O)C2CCCO2)c1 (configuration not stated)	-10	.	10	1	6	.	.	.
CCN(CC)CCN1C(=O)C(=O)/C(=C(/O)c2ccc(OC(C)C)cc2)C1c1cccs1 (configuration not stated)	-8	i	-11	1	-1	2	-1	-8
CCCNC(=O)c1onc(CSc2ccc(Cl)cc2)c1C(=O)NCCC(C)C	-25	i	15	0	-1	.	.	93*
CCOC(=O)c1ccc(NC(=O)CC2SCCNC2=O)cc1 (configuration not stated)	-24	i	-23	2	2	-4	-1	-4

For convenience, part of the list above:
SMILES	UUG fidelity	Rce1 inh	Env fusion inh	MT1-MMP act inh	MT1-MMP act inh RFP	eIF4H inh	PABP polyA inh	CSC inhib	others
CCCNC(=O)c1onc(CSc2ccc(Cl)cc2)c1C(=O)NCCC(C)C	-25	i	15	0	-1	.	.	93*
CCOC(=O)c1ccc(NC(=O)CC2SCCNC2=O)cc1 (configuration not stated)	-24	i	-23	2	2	-4	-1	-4

(listing goes on)
SMILES	UUG fidelity	Rce1 inh	Env fusion inh	MT1-MMP act inh	MT1-MMP act inh RFP	eIF4H inh	PABP polyA inh	CSC inhib	others
Cc1ccccc1NC(=O)CSCC(=O)Nc1ccccc1C	-12	i	-17	6	9	2	-8	-4
CC(=O)c1cccc(NS(=O)(=O)c2ccc3c(c2)N(C(C)=O)CCO3)c1	-18	i	-5	1	-5	-5	-1	1
CCOC(=O)N1CCN(C(=O)c2cc3c(-c4ccc(Cl)cc4)nn(C)c3s2)CC1	-15	i	-21	-4	-18	-10	6	22
COc1ccc(Br)c(C(=O)NCCC(C)C)c1	.	i	14	6	1	-6	-8	-12
COC(=O)C1=CN(Cc2cccs2)C=C(C(=O)OC)C1c1cccc(O)c1	.	?	-5	-1	1	-9	-5	1
CC(=O)c1ccc(NC(=O)c2ccc3snnc3c2)cc1	-9	i	-86	4	0	12	9	3
CCCn1c(SCC(=O)N2CCCc3ccccc32)nc2c1c(=O)n(C)c(=O)n2C	-9	.	9	17	20	-7	-6	.
CCCCn1c(N)c(N(CCOC)C(=O)c2ccc(COc3ccccc3)o2)c(=O)[nH]c1=O	-12	i	.	2	5	.	.	-10
C/C(=N/NC(=O)CN1CCN(S(=O)(=O)c2ccc(C)cc2)CC1)c1cccc(O)c1	3	i	5	3	2	3	-15	-3
COc1ccc(CNC(=O)COC(=O)c2cc(C)nc3ccccc23)cc1	-17	.	-8	11	-9	.	.	0
COc1cc(C(=O)NCCCc2ccccc2)cc(OC)c1OC	-4	i	4	2	-3	16	12	0
O=C(Cc1ccccc1)Nc1ccc(S(=O)(=O)N2CCCC2)cc1	6	i	-6	1	1	-12	5	.
COc1ccc(CCNC2=NCC(C)S2)cc1 (configuration not stated)	.	i	-13	3	2	2	-11	1
Cc1ccc(S(=O)(=O)N2[C@@H](c3cccc(Cl)c3)C(C(=O)O)=CC[C@H]2c2ccc(Cl)cc2)cc1	-17	.	18	-2	2	.	.	19
CCn1c(C)cc(/C=C2\SC(=O)N(CC(=O)Nc3ccc(C)c(C)c3)C2=O)c1C	-11	i	-15	-4	1	-5	-7	0
O=C(N/N=C/c1ccc(Cl)cc1Cl)Nc1ccccc1	-22	i	-139	5	1	-3	1	30
